Vaccinia inh: Vaccinia orthopox stage-specific inhibition; Vaccinia-infected cells, mCherry/Venus stage reporter fluorescence; hits give low values; some inactives read as strong as hits; activity change (mCherry), % (no concentration beside the values); 0.01% of 89,000 active; AID 1053133;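 active = mCherry past -33% and 40 or more points under the early reporter, replicates agreeing; inconclusive = past -33% without that gap or agreement; tested in A549 cells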;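 note: scaled between vehicle wells and reference inhibitor wells; 23 nL library stock went into each well; one replicate is shown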
Vaccinia inh Venus: further read-out of Vaccinia inh, marked with its call; activity change (Venus), %; measured here: Venus reporter, other viral stage;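 negative = less Venus signal; first of two replicates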
Numbers without * were called inactive; ? = inconclusive; · = not tested or not shown.

Order of values – Vaccinia inh, Vaccinia inh Venus
CC(C)NC(=O)Nc1ccc2c(c1)CC(=O)N([C@@H](C)CO)C[C@@H](C)[C@@H](CN(C)C)O2
→ 1, -9
COCC(=O)N(C)C[C@H]1Oc2cc(C#Cc3cccnc3)ccc2S(=O)(=O)N([C@H](C)CO)C[C@@H]1C
→ 2, -4
COc1ccc(-c2cn(CC[C@@H]3CC[C@H](NC(=O)Nc4ccc(F)cc4)[C@@H](CO)O3)nn2)cc1
→ 16, 1
O=S(=O)(Cc1ccccc1)NCC[C@@H]1CC[C@H](NS(=O)(=O)c2ccccc2)[C@@H](CO)O1
→ 5, 4
C[C@H]1CN([C@@H](C)CO)C(=O)c2cccc(NC(=O)c3cnccn3)c2O[C@@H]1CN(C)CC1CC1
→ 8, 11
O=C(Nc1ccc(Cl)cc1)N[C@@H]1CC[C@@H](CCn2cc(-c3ccccc3F)nn2)O[C@H]1CO
→ -2, 4
COC(=O)c1c(CC[C@@H](CO)NC(=O)N[C@H](Cc2ccccc2)Cn2cc(-c3ccccc3N)nn2)oc(C(C)=O)c1C(=O)OC
→ 21, 19
C#CCNC(=O)C1=C[C@H](c2csc3ccccc23)[C@@H](CCCO)[C@H](OCC)O1
→ 9, 8
C[C@@H]1CCCCO[C@H](CN(C)C(=O)Nc2ccc(C(F)(F)F)cc2)[C@@H](C)CN([C@H](C)CO)C(=O)c2cc(NC(=O)C3CCCCC3)ccc2O1
→ -2, -1
COc1ccc(NC(=O)Nc2ccc3c(c2)OC[C@@H](C)NC[C@H](C)[C@H](OC)CN(C)C3=O)cc1
→ 17, 14

Next part:
Order of values – Vaccinia inh, Vaccinia inh Venus
C/C=C/c1ccc([C@@H]2[C@@H](CN(C)C(=O)CN(C)C)N(C(C)=O)[C@H]2CO)cc1
→ -3, -3
C[C@H](CO)N1C[C@H](C)[C@H](CN(C)Cc2ccc(C(F)(F)F)cc2)Oc2ccc(NC(=O)Nc3ccccc3)cc2CC1=O
→ -32, -21
C[C@@H]1CN([C@H](C)CO)C(=O)Cc2cc(NC(=O)c3ccncc3)ccc2O[C@H]1CN(C)Cc1ccc(C(F)(F)F)cc1
→ ?, ·
C[C@H]1CN([C@@H](C)CO)C(=O)Cc2cc(NC(=O)CCCCCC(=O)Nc3ccccc3N)ccc2O[C@@H]1CN(C)Cc1ccccc1
→ -7, -6
O=C(O)C[C@H]1C=C[C@H](NC(=O)Nc2cc(F)ccc2F)[C@H](CO)O1
→ 12, 15
C[C@@H]1CCCCO[C@H](CN(C)Cc2ccncc2)[C@@H](C)CN([C@@H](C)CO)C(=O)c2cc(NS(=O)(=O)c3ccc(F)cc3)ccc2O1
→ -12, -12
C[C@H]1CN([C@@H](C)CO)C(=O)c2ccccc2-c2ccccc2CO[C@@H]1CN(C)C(=O)C1CC1
→ 27, 6
CCC(=O)N1CC(=O)N2[C@H](CO)[C@@H](c3ccc(-c4ccccc4C)cc3)[C@H]2C1
→ 12, -13
C[C@@H]1CCCCO[C@@H](CN(C)Cc2ccccc2)[C@H](C)CN([C@@H](C)CO)C(=O)c2cc(NC(=O)Nc3cccc4ccccc34)ccc2O1
→ ?, ·
OC[C@@H]1[C@@H](c2ccc(C#CC3CCCC3)cc2)[C@H]2CN(CCC(F)(F)F)CCCCN12
→ ?, ·

Arranged by molecular weight (descending): 4 of the compounds above.
Order of values – Vaccinia inh, Vaccinia inh Venus
C[C@@H]1CCCCO[C@@H](CN(C)Cc2ccccc2)[C@H](C)CN([C@@H](C)CO)C(=O)c2cc(NC(=O)Nc3cccc4ccccc34)ccc2O1
→ ?, ·
C[C@H](CO)N1C[C@H](C)[C@H](CN(C)Cc2ccc(C(F)(F)F)cc2)Oc2ccc(NC(=O)Nc3ccccc3)cc2CC1=O
→ -32, -21
C/C=C/c1ccc([C@@H]2[C@@H](CN(C)C(=O)CN(C)C)N(C(C)=O)[C@H]2CO)cc1
→ -3, -3
O=C(O)C[C@H]1C=C[C@H](NC(=O)Nc2cc(F)ccc2F)[C@H](CO)O1
→ 12, 15

Following part:
Order of values – Vaccinia inh, Vaccinia inh Venus
C[C@@H]1CN([C@H](C)CO)C(=O)c2cc(NC(=O)Cc3ccccc3)ccc2O[C@@H]1CN(C)C(=O)Nc1ccc2c(c1)OCO2
→ 11, 13
C[C@H]1CN([C@@H](C)CO)C(=O)c2cc(C3=CCCC3)cnc2O[C@@H]1CN(C)C(=O)c1ccc(F)cc1
→ 10, 5
O=C(c1ccc(F)cc1)N1CC(=O)N2[C@H](C1)[C@@H](c1ccc(C#CCC3CCCC3)cc1)[C@@H]2CO
→ 3, 8
COc1cccc(NC(=O)N2CC3(C2)[C@H](c2ccccc2)[C@@H](CO)N3C(=O)C2CCC2)c1
→ 1, 1
CS(=O)(=O)Nc1ccc2c(c1)[C@@H]1C[C@@H](CC(=O)NCc3ccc(Oc4ccccc4)cc3)O[C@H](CO)[C@@H]1O2
→ -17, -6
CN1CCCCN2[C@H](CO)[C@H](c3ccc(-c4ccc(F)cc4)cc3)[C@@H]2C1
→ -13, -4
Cc1ccc(S(=O)(=O)N(C)C[C@@H]2Oc3ncc(C#CC4(O)CCCC4)cc3C(=O)N([C@@H](C)CO)C[C@H]2C)cc1
→ -16, -13
O=C(C1CCOCC1)N1C[C@H]2[C@@H](c3ccccc31)[C@H](CO)N2Cc1ccccc1
→ 16, 18
C[C@@H]1CN([C@H](C)CO)C(=O)c2cc(C3=CCCC3)cnc2O[C@@H]1CN(C)C(=O)CN1CCOCC1
→ 8, 4
CO[C@@H]1CN(C)C(=O)c2cc(NC(=O)NC3CCCCC3)ccc2OC[C@H](C)N(CC2CC2)C[C@@H]1C
→ -10, -4

Next part.
Order of values – Vaccinia inh, Vaccinia inh Venus
COc1ccc(S(=O)(=O)N(C)C[C@H]2OCCCC[C@@H](C)Oc3ccc(NC(=O)CCCN(C)C)cc3C(=O)N([C@H](C)CO)C[C@@H]2C)cc1
→ 26, -1
CNC(=O)C[C@@H]1CC[C@@H]2[C@@H](COc3ccc(NC(=O)Nc4cccc(C)c4)cc3C(=O)N2C)O1
→ 15, 7
O=C(C[C@H]1C=C[C@H](NC(=O)Nc2ccccc2)[C@H](CO)O1)NCc1ccccn1
→ -2, 1
CCCC#Cc1ccc2c(c1)O[C@H](CN(C)C(=O)NC(C)C)[C@H](C)CN([C@H](C)CO)S2(=O)=O
→ -17, -15
COc1ccc(S(=O)(=O)Nc2ccc3c(c2)C(=O)N([C@@H](C)CO)C[C@H](C)[C@H](CN(C)S(=O)(=O)c2ccccc2)OCCCC[C@@H](C)O3)cc1
→ 1, 12
C[C@@H]1CN([C@@H](C)CO)C(=O)c2cccc(NC(=O)c3ccc(-c4nccs4)cc3)c2O[C@H]1CN(C)CC1CC1
→ -20, -9
COc1cccc(C(=O)Nc2ccc3c(c2)OC[C@H](C)N(C)C[C@@H](C)[C@H](OC)CN(C)C3=O)c1
→ -1, -3
COc1cccc(NC(=O)C[C@H]2CC[C@@H]3[C@@H](COc4ccc(NC(=O)c5ccccc5F)cc4C(=O)N3C)O2)c1
→ -27, -17
Cc1noc(C)c1S(=O)(=O)N(C)C[C@@H]1OCCCC[C@@H](C)Oc2ccc(NC(=O)CCCN(C)C)cc2C(=O)N([C@H](C)CO)C[C@@H]1C
→ 11, 2
C[C@@H]1CN([C@H](C)CO)C(=O)c2cc(C#Cc3ccccn3)cnc2O[C@H]1CN(C)CC1CCOCC1
→ 26, 22

Other structures:
Order of values – Vaccinia inh, Vaccinia inh Venus
O=C(Nc1ccc(F)cc1)N1CC(=O)N2[C@H](C1)[C@@H](c1ccc(Br)cc1)[C@@H]2CO
→ -19, -11
O=C(NCc1ccccn1)[C@@H]1[C@@H](CO)[C@@H]2Cn3c(cccc3=O)[C@H]1N2CC1CCCC1
→ 3, 3
CC(C)NC(=O)N(C)C[C@@H]1Oc2ccc(NC(=O)Cc3ccccc3)cc2CC(=O)N([C@@H](C)CO)C[C@@H]1C
→ 7, -1
Cc1noc(C)c1S(=O)(=O)Nc1ccc2c(c1)C(=O)N([C@H](C)CO)C[C@@H](C)[C@H](CN(C)C(=O)C1CCCCC1)OCCCC[C@@H](C)O2
→ -16, -24
O=C(C[C@H]1CC[C@@H](NC(=O)C2CCOCC2)[C@@H](CO)O1)NCC1CCCCC1
→ 1, -1
O=C(Cc1ccccn1)N1CCCCN2[C@H](C1)[C@@H](c1ccc(-c3ccccc3)cc1)[C@@H]2CO
→ 11, 1
C[C@H](CO)N1C[C@H](C)[C@@H](CN(C)C(=O)c2ccccc2)OCCCC[C@H](C)Oc2ccc(NC(=O)Nc3ccccc3)cc2C1=O
→ -2, -6
C[C@@H]1CN([C@H](C)CO)C(=O)c2cc(NS(=O)(=O)c3ccccc3)ccc2O[C@@H](C)CCCCO[C@@H]1CN(C)C(=O)CCCN(C)C
→ 57, 19
C[C@H](CO)N1C[C@H](C)[C@H](CN(C)CC2CC2)Oc2ccc(NC(=O)CCC(F)(F)F)cc2CC1=O
→ 8, 1
C[C@@H]1CN([C@@H](C)CO)S(=O)(=O)c2ccc(C#Cc3cccnc3)cc2O[C@H]1CN(C)C(=O)Nc1ccc2c(c1)OCO2
→ -6, -19

Next compounds:
Order of values – Vaccinia inh, Vaccinia inh Venus
Cc1ccc(S(=O)(=O)N(C)C[C@H]2Oc3ccc(NC(=O)Nc4ccc5c(c4)OCO5)cc3C(=O)N([C@@H](C)CO)C[C@@H]2C)cc1
→ 14, 6
CCNC(=O)C[C@@H]1C=C[C@@H](NS(=O)(=O)c2ccc(F)cc2)[C@H](CO)O1
→ 7, 9
C[C@@H]1CN([C@@H](C)CO)C(=O)c2cc(Br)cnc2O[C@@H]1CN(C)C(=O)c1ccccn1
→ 20, 14
Cc1cccc(-c2ccc([C@@H]3[C@@H](CO)N4CCCCN(CCC(F)(F)F)C[C@H]34)cc2)c1
→ ?, ·
C[C@H](CO)N1C[C@H](C)[C@@H](CN(C)Cc2ccncc2)Oc2ncc(C3=CCCCC3)cc2C1=O
→ -12, -4
C[C@@H]1CN([C@@H](C)CO)C(=O)c2cccc(N(C)C)c2O[C@@H]1CN(C)C(=O)Nc1cccc2ccccc12
→ -24, -3
C[C@H]1CN([C@@H](C)CO)S(=O)(=O)c2ccc(C3=CCCCC3)cc2O[C@H]1CN(C)C(=O)C1CCCCC1
→ ?, ·
C[C@H](CO)N1C[C@H](C)[C@H](CN(C)C(=O)NC2CCCCC2)Oc2ncc(C#Cc3ccccc3)cc2C1=O
→ ?, ·
O=C(C1CCCC1)N1C[C@H]2[C@@H](c3ccccc31)[C@H](CO)N2C(=O)c1ccccc1
→ 0, 5
C[C@H](CO)N1C[C@H](C)[C@H](CN(C)Cc2cccnc2)Oc2ncc(C3=CCCCC3)cc2C1=O
→ 13, 3

New compounds follow
Order of values – Vaccinia inh, Vaccinia inh Venus
COc1ccc(S(=O)(=O)Nc2ccc3c(c2)C(=O)N([C@@H](C)CO)C[C@@H](C)[C@@H](CN(C)S(=O)(=O)c2cccs2)O3)cc1
→ 4, 4
COc1ccc(NC(=O)N(C)C[C@H]2Oc3ccc(NC(=O)c4ccncc4)cc3C(=O)N([C@H](C)CO)C[C@@H]2C)cc1
→ 6, 2
CCC(=O)N1CC2(C1)CN(C(=O)Cc1ccccc1)[C@H](CO)c1c2c2ccc(OC)cc2n1C
→ 21, 9
Cc1noc(C)c1NC(=O)N(C)C[C@@H]1Oc2ncc(C#CCC(C)C)cc2C(=O)N([C@@H](C)CO)C[C@H]1C
→ 20, 2
Cc1ccccc1S(=O)(=O)N1CC(=O)N2[C@H](CO)[C@@H](c3ccc(C#CCN(C)C)cc3)[C@H]2C1
→ 12, 10
C[C@H]1CN([C@@H](C)CO)C(=O)c2cccc(NC(=O)Nc3cccc4ccccc34)c2O[C@H]1CN(C)C(=O)Nc1ccc(F)cc1
→ -31, -21
CO[C@@H]1CN(C)C(=O)c2cc(NC(C)=O)ccc2OC[C@@H](C)N(Cc2ccccc2F)C[C@H]1C
→ 4, 11
COc1ccccc1S(=O)(=O)N1CC[C@@H]2[C@H]1c1cc(-c3ccccc3F)ccc1N[C@@H]2CO
→ -35, -24
C[C@H]1CN([C@@H](C)CO)C(=O)CCCn2cc(nn2)CO[C@H]1CN(C)C(=O)Nc1ccc(F)cc1
→ 8, 6
COc1cccc(-c2ccc3c(c2)[C@@H]2[C@@H](CCN2C(=O)c2ccc4c(c2)OCO4)[C@H](CO)N3C)c1
→ ?, ·

Further records follow.
Order of values – Vaccinia inh, Vaccinia inh Venus
O=S(=O)(N[C@@H]1CC[C@H](CCn2cc(C3(O)CCCC3)nn2)O[C@H]1CO)c1ccc(Cl)cc1
→ -5, -3
CCC(=O)N1[C@@H](CO)[C@@H](c2ccccc2)C12CN(C(=O)c1ccc3c(c1)OCO3)C2
→ 12, 15
Cc1ccccc1S(=O)(=O)N1CCCCN2[C@@H](CO)[C@H](c3ccc(-c4cccc(F)c4)cc3)[C@@H]2C1
→ -10, -2
COc1ccc(C#Cc2ccc3c(c2)O[C@H](CN(C)C(C)=O)[C@H](C)CN([C@H](C)CO)S3(=O)=O)cc1
→ -27, -23
CCCNC(=O)N1[C@H](C#N)[C@H](c2ccccc2-c2cccc(C)c2)[C@@H]1CO
→ -2, -3
C[C@@H]1CN([C@H](C)CO)C(=O)Cc2cc(NC(=O)Nc3ccc(C(F)(F)F)cc3)ccc2O[C@H]1CN(C)Cc1ccc(Cl)c(Cl)c1
→ 1, -2
C[C@@H]1CCCCO[C@H](CN(C)S(=O)(=O)c2ccc(F)cc2)[C@H](C)CN([C@H](C)CO)C(=O)c2cc(NC(=O)CCC(F)(F)F)ccc2O1
→ -33, -20
O=C(C[C@@H]1CC[C@@H]2[C@H](COC[C@H](O)CN2C(=O)c2ccc(F)cc2)O1)Nc1ccc(-c2ccccc2)cc1
→ ?, ·
CC(C)NC(=O)N1CC2(C1)[C@H](c1ccccc1)[C@H](CO)N2Cc1cncnc1
→ 3, 6
COc1ccc(C(=O)Nc2ccc3c(c2)C(=O)N(C)C[C@H](OC)[C@H](C)CN(C)[C@@H](C)CO3)cc1
→ -9, 2
C[C@H](CO)N1C[C@H](C)[C@@H](CN(C)Cc2ccccc2F)Oc2ncc(Br)cc2C1=O
→ -1, -1

Screens deposited in PubChem by Broad Institute.

A portion of the library. The share of hits here may be higher or lower than overall.
